Screening data: PubChem BioAssay, several laboratories
LANA-H2A inh = blockers of LANA interaction with H2A/H2B – biochemical, FP readout, HTS, primary screen; Protein LANA1 (Human herpesvirus 8 type P (isolate GK18)), Q9QR71; cell-free LANA-H2A/H2B peptide, fluorescence polarization; inhibition, % (no concentration beside the values); hit rate 0.6% among 320,000; AID 2629, 2010; in the data active = inhibition mostly above about 10%, no sharp cut-off; inactive = mostly below about 6.7%;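 also: stock transfer was 7.5 nL into about 10 µL; 0% = median of vehicle wells and 100% = median of positive control wells; one replicate is shown; the record names a cut of 25% in any replicate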
Beta2AR agonist = beta2AR agonists driving receptor internalization, primary screen, cell-based, FAP fluorogen, flow cytometry | Beta-2 adrenergic receptor (Homo sapiens), P07550 | Am2.2-beta2AR cells; reference of the scale not given here | response, % (concentration not given with the values) | hit rate 0.43% among 340,000;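 active = response above a set limit, near 3 SD of response in nonfluorescent compounds, cut at about 42% in these data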;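 also: stock transfer was 100 nL into about 11 µL; a reference agonist was the positive control; negative values mostly stem from fluorescent compounds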
Target sequence (P07550 whole entry, looked up): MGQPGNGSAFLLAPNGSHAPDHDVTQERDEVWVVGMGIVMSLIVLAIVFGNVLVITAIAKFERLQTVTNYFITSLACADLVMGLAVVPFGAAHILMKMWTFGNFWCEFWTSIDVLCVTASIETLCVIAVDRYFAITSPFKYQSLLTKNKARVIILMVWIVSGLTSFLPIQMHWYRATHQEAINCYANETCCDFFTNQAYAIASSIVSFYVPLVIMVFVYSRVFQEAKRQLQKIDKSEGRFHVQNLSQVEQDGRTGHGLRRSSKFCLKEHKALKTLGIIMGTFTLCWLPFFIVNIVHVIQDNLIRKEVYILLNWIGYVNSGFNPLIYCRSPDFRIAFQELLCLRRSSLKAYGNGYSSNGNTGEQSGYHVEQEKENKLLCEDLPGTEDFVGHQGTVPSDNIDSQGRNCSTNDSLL
T cruzi inh = inhibitors of intracellular T. cruzi growth, primary screen, luminescence, NIH3T3 host cells | inhibition, % (no concentration beside the values) | T. cruzi beta-gal in NIH3T3, 90 h | hit rate 1.4% among 300,000;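 active = mean inhibition across valid replicates above about 55%, limit read from the data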;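 also: signal also drops with host cell toxicity which is not excluded here; 0% = plate median of DMSO wells and 100% = zero luminescence signal; higher percent means less beta-gal luminescence so fewer parasites; stock transfer was 50 nL into about 50 µL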
Ecoli rRNA inh = reduced GFP signal of wild-type E. coli, primary screen, bacterial rRNA inhibitor project, GFP/RFP fluorescence, OD600, single point; hit rate 1.6% among 350,000; GFP signal change (wild-type ribosome), % (no concentration beside the values); E. coli WT GFP vs humanized-ribosome RFP mutants, 24 h; stronger effect = lower value; DMSO median 0, no signal -100;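 active = significant combined selectivity score with lowered wild-type GFP, culture density cut under 30%, mutant RFP and density less affected; inactive = any of these conditions unmet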; also: one replicate is shown; some compounds called inactive have numbers as strong as hits
ALR H2O2 inh = inhibitors of human ALR sulfhydryl oxidase, primary screen, biochemical, H2O2 detection, HRP-luminol luminescence, single point | purified ALR, DTT oxidation | inhibition, % (concentration not given with the values) | hit rate 3.8% among 290,000 | AID 485317, 2010;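 active = mean and each replicate at 75% or more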;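 also: stock transfer was 7.5 nL into about 7.5 µL; 0% = neutral wells and 100% = wells with inactivated enzyme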
Target sequence (P55789 whole entry, looked up): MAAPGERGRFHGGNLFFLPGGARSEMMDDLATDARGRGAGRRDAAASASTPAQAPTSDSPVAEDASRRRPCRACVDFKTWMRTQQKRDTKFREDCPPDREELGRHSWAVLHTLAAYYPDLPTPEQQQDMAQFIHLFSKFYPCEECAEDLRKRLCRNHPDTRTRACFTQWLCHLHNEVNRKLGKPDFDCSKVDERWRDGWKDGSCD
Calb FLC = C. albicans growth inhibition with fluconazole, primary screen, CaCi-2 strain, Alamar Blue fluorescence. AID 1979, 2009. growth inhibition, % (test concentration not listed). C. albicans CaCi-2 (fluconazole-resistant clinical isolate) + fluconazole, 48 h. hit rate 0.57% among 300,000;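 active = most replicates above 75%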;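 also: all wells also contain fluconazole at 8 µg/ml as a sub-toxic cotreatment; 0% = median of DMSO wells and 100% = median of geldanamycin control wells; wells of about 8 µL received 7.5 nL stock; the first replicate is given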
Bfl-1 A1 inh = caspase 3/7 activation in MEF A1-2A-BIM cells, primary screen, A1 inhibitor project, cell-based, luminescence, HTS; caspase activation, % (concentration not given with the values); Caspase-Glo 3/7 luminescence, 3 h; percent of clofoctol response, vehicle zero; hit rate 0.066% among 330,000; AID 2462, 2010;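 active = over half of replicate activation scores above 10%, or exactly half above 10 with the replicate mean above 10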;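 also: wells of about 30 µL received 50 nL stock; many hits fall short of the cut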
Beta cell apopt = inhibitors of cytokine-induced beta cell apoptosis, primary screen, luminescence; INS-1E cytokine-induced death, ATP luminescence, 48 h; percent of positive-control rescue, neutral wells zero; protection from apoptosis, % (test concentration not listed); hit rate 0.8% among 300,000;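 active = all replicates at 75% or more, or half of them and the mean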;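 also: 0% = cytokine-treated negative control wells and 100% = positive control rescue; higher means more ATP so stronger rescue from cytokine killing; wells of about 40 µL received 100 nL stock; the first replicate is given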
Ecoli rRNA inh OD600 = further read-out of Ecoli rRNA inh, marked with its call; OD600 change, %; measured here: OD600 growth;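 optical density of the mix in the first replicate; 0 = DMSO median and -100 = no signal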
Ecoli rRNA inh RFP = recorded beside Ecoli rRNA inh, whose call it bears; RFP signal change, %; measured here: RFP humanized mutant strains;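 first replicate; 0 = DMSO median and -100 = no signal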
* = called active by the depositor; / = no result given.

#	structure	LANA-H2A inh	Beta2AR agonist	T cruzi inh	Ecoli rRNA inh	Ecoli rRNA inh OD600	Ecoli rRNA inh RFP	ALR H2O2 inh	Calb FLC	Bfl-1 A1 inh	Beta cell apopt
1	CC1Cc2ccccc2N1C(=O)CO/N=C/c1ccccc1OC(F)F (centres undefined)	3.2	4	10	-1	-2	1.1	-21	-1	1.1	1
2	O=C(NNS(=O)(=O)c1ccc2ccccc2c1)NC1CCCCC1	-1.1	2	-23	/	/	/	34	1	0.4	0
3	Cc1ccc(N(CCC#N)C(=O)COC(=O)C2CCN(S(=O)(=O)c3ccc4c(c3)OCCO4)CC2)cc1	-2.7	8	-3	-2	-5	1.1	-2	-7	0.7	-1
4	Cc1c(C(=O)Nc2ccc(S(=O)(=O)Nc3ncccn3)cc2)oc2ccccc12	3.7	25	/	4	7	10	/	/	-1.1	-4
5	CCN(CC)CC(=O)N1c2ccccc2Sc2ccccc21	3.0	-4	2	6	10	0.6	12	-2	1.0	-1
6	O=C(CN1CCCC1)Nc1ccccc1C(=O)c1ccccc1	1.5	3	2	15	15	7.4	-4	18	-0.2	-10
7	CC1CC(C)CN(C(=O)COc2ccc(-c3nnco3)cc2)C1 (centres undefined)	-0.6	-1	-13	/	/	/	-4	13	0.8	1
8	CN(C)C(=O)c1cc(Cl)ccc1Sc1cc(Cl)ccc1Cl	0.0	-4	-1	/	/	/	/	2	0.6	2
9	COc1ccc(C2=NOC(C(=O)N3CCOCC3)C2)cc1OC (centres undefined)	-0.1	-6	-14	11	5	-7.4	-7	-12	1.3	-4
10	Cc1ccc(-c2nnn(CC(=O)N(c3ccccc3F)C(C(=O)NC3CCCC3)c3ccco3)n2)o1 (centres undefined)	2.2	-3	19	/	/	/	/	-9	0.4	/
11	C#CCOCCOCCOCCNc1nc(N2CCN(C(=O)[C@H](CCCN=C(N)N)n3cc(C(N)[C@@H](C)CC)nn3)CC2)nc(N2CCN(C(=O)[C@H](CCCCN)n3cc([C@@H](N)CC(N)=O)nn3)CC2)n1 (some centres undefined)	4.1	-3	/	10	18	4.5	1	/	0.3	-7
12	COc1ccccc1CNC1CCCc2ccccc21 (centres undefined)	-0.2	-3	-2	5	2	2.0	-8	3	-1.5	-12
13	COc1ccc(N2C(=O)c3ccc(C(=O)OC(C)C)cc3C2=O)cc1	0.8	3	-16	/	/	/	-1	-2	-0.3	0
14	Cc1cccc(-c2nc(CS(=O)CC(=O)N3CCc4ccccc4C3)c(C)o2)c1 (centres undefined)	1.5	-6	-2	/	/	/	/	6	-0.5	-12
15	CC(C)Sc1nnc(CNC(=O)C23CC4CC(CC(C4)C2)C3)n1Cc1ccccc1	4.5	-10	34	-19	-20	6.4	-14	-17	0.4	1
16	CSc1ccc(N2CCN(CCCNC(=O)Nc3ccccc3F)CC2)cc1	1.6	5	-10	/	/	/	44	-28	0.9	-7
17	CC1(C)Cc2c(C#N)c(NCc3ccco3)nc(-c3ccco3)c2CO1	1.6	1	3	/	/	/	43	9	0.5	-5
18	CCOc1ccccc1N1CCN(C(=O)c2cc3cc(OC)ccc3[nH]2)CC1	-3.4	1	7	-7	-4	1.5	-17	21	0.2	-3
19	COc1ccc(C2=NS(=O)(=O)N(C)C(C(=O)Nc3ccc(C(C)=O)cc3)=C2)cc1OC	2.4	14	4	-11	-6	4.9	-1	-3	0.0	3
20	O=C(CCCN1C(=O)c2ccccc2C1=O)Nc1ccc2c(c1)OCCO2	-2.5	-2	0	-11	-11	0.0	-5	-11	1.2	-2
21	CCOC(=O)C1(Cc2cccc(OC)c2)CCN(Cc2ccc(C)s2)CC1	-0.1	1	17	-24	-23	-1.1	-5	-5	-0.1	4
22	Clc1ccc(C[n+]2csc3ccccc32)cc1	-8.5	7	/	18	15	5.9	11	/	0.5	-4
23	CCn1c(NCc2ccccc2Cl)nc2ccccc21	2.5	-13	-9	/	/	/	6	-1	0.1	0
24	O=c1[nH]c(/C=C/c2ccccn2)nc2ccccc12	1.6	-2	4	5	17	0.2	7	11	-2.9	-10
25	COc1ccc(S(=O)(=O)N2Cc3ccccc3CC2C(=O)O)cc1OC (centres undefined)	-1.3	-2	-2	4	2	-4.3	-135	1	1.0	/
26	CN(Cc1nc2ccccc2c(=O)[nH]1)C(=O)c1cccc(S(=O)(=O)N2CCc3ccccc32)c1	0.9	9	/	-25	-28	-2.3	10	/	0.5	6
27	O=C(c1ccc(Br)c(S(=O)(=O)N2CCCCC2)c1)N1CCCCC1	-3.7	-8	7	-15	-13	0.9	2	3	-0.2	-4
28	Cn1c(=O)c(=O)n(C)c2cc(S(=O)(=O)CCC(=O)Nc3ccc(C(F)(F)F)cc3)ccc21	4.9	-5	-25	3	14	-0.3	1	-13	-2.0	-2
29	CCC(=O)Oc1ccc(/C(CC)=C(\CC)c2ccc(OC(=O)CC)cc2)cc1	-0.4	-2	11	/	/	/	/	-4	-0.6	-12
30	CCNC(=S)Nc1ccc(Cc2nc3ccccc3[nH]2)cc1	-2.3	-17	0	-2	11	0.9	-2	-20	0.6	-10
31	C=CCC1NS(=O)(=O)OC(CCCC)C1O (centres undefined)	1.3	7	-14	15	7	13	1	-5	0.3	-9
32	Cc1[nH]n(-c2cccc3ccccc23)c(=O)c1/C=N/NC(=O)c1cccc([N+](=O)[O-])c1	11	0	-18	/	/	/	9	80*	-1.7	7
33	CCc1nnc2sc(-c3cc(-c4ccccc4)nc4ccccc34)nn12	1.6	-16	2	/	/	/	-1	4	0.4	-5
34	C/C(=N/NC(=O)c1ccccn1)c1ccc(O)cc1	4.4	-1	-5	9	0	1.7	99*	-18	-3.5	12
35	CCOc1ccc(N(CC(=O)Nc2cccc(Br)c2)S(C)(=O)=O)cc1	36*	-5	10	-14	-7	3.7	-17	7	-0.2	-3
36	COc1ccc(OCCCN2CCc3ccccc3C2)cc1	-0.6	-8	22	2	-2	-3.8	-4	-21	-0.3	/
37	O=C(c1cnn2c(C(F)(F)F)cc(-c3cccs3)nc12)N1CCN(C(c2ccccc2)c2ccccc2)CC1	-6.0	2	45	/	/	/	/	-7	-0.3	25
38	O=C(O)CN1C(=O)NC2(CCOc3ccccc32)C1=O (centres undefined)	-0.9	2	-8	4	-2	0.7	-1	1	-0.6	-3
39	O=C(CCc1nc2ccccc2s1)NCc1ccccc1F	0.1	-142	9	-4	3	6.4	44	10	-0.5	-4
40	Cc1ccccc1S(=O)(=O)Cc1ccc(C(=O)NCCN2CCCCC2C)o1 (centres undefined)	-1.9	-8	4	/	/	/	9	0	-2.7	-3
41	Cc1nn2c(-c3cccc(NC(=O)CSc4nc5ccccc5o4)c3)nnc2c2ccccc12	1.8	3	9	/	/	/	99*	-1	0.0	14
42	C#CCNC(=O)C1=C[C@@H](c2ccc(C#C)cc2)[C@H](CCCO)[C@@H](OCC)O1	-2.3	1	-12	/	/	/	-2	-6	0.6	-3
43	CCCCCc1ccc(-c2cn(Cc3cccc(OC)c3)nn2)cc1	0.4	-14	13	-5	-3	-9.4	-1	19	2.3	-12
44	O=[N+]([O-])c1ccc(O)c(Nc2ncnc3ccc(Br)cc23)c1	-0.9	16	8	-5	-7	-0.7	-6	85*	-0.4	22
45	CC1=Nc2ccccc2/C1=C/c1c(N)n2c(S(=O)(=O)C(C)C)nsc2nc1=O	4.6	-1	-8	-35	-47	-1.3	97*	-9	-0.5	1
46	Cc1ccc2c(CN3CCN(C(=O)c4ccco4)CC3)cc(=O)oc2c1C	-0.4	-11	3	/	/	/	-6	3	-0.1	-2
47	O=C(NCc1ccccc1Cl)C1CCN(S(=O)(=O)N2CCC3(CC2)OCCO3)CC1	-1.6	-3	-8	-3	4	4.7	-2	7	0.9	-2
48	CCCCC1=CC2=C(c3ccco3)C(=O)C(C)(OC(=O)c3ccc(OC)cc3)C(=O)C2=CN1CCc1ccccn1 (centres undefined)	-0.9	21	29	11	3	-0.9	-24	7	0.7	-4
49	NC(=O)c1nsc(C(=O)N(CC(=O)NC2CCCCC2)Cc2ccc(F)cc2)c1N	-10	-5	-9	-2	-2	3.1	3	0	0.7	-1
50	O=c1oc(-c2ccccc2F)nc2scc(-c3ccccc3)c12	-0.6	-1	-6	/	/	/	1	10	-1.6	9
51	CCOC(=O)SC1=N/C(=C\c2ccc(N(C)C)cc2)C(=O)S1	1.2	11	0	6	8	4.8	84*	28	-0.2	0
52	COc1ccc2[nH]c(=O)c(CNc3ccccc3OC)cc2c1	-2.6	-1	3	14	-3	3.0	-26	1	-0.9	0
53	FC(F)(F)c1cc(-c2ccccc2)nc(-n2cc(Cl)cn2)n1	-6.4	-15	-8	9	17	11	/	-11	0.3	5
54	COc1ccc(NC(=O)CCNC(=O)c2ccco2)c(OC)c1	-3.7	6	-9	-1	4	-0.9	-4	-4	0.1	-5

Shown with values under each structure: part of the list above.
Fields: LANA-H2A inh, Beta2AR agonist, T cruzi inh, Ecoli rRNA inh, Ecoli rRNA inh OD600, Ecoli rRNA inh RFP, ALR H2O2 inh, Calb FLC, Bfl-1 A1 inh, Beta cell apopt
(13) COc1ccc(N2C(=O)c3ccc(C(=O)OC(C)C)cc3C2=O)cc1
→ 0.8, 3, -16, /, /, /, -1, -2, -0.3, 0
(14) Cc1cccc(-c2nc(CS(=O)CC(=O)N3CCc4ccccc4C3)c(C)o2)c1 (centres undefined)
→ 1.5, -6, -2, /, /, /, /, 6, -0.5, -12

The list is partial; count on the stated rates, not on these rows.
